DUX4 txn inh – blocks DUX4-driven transcriptional activation | 293T-iDUX4 ZSCAN4-Gaussia luciferase reporter, 24 h; stronger effect = lower value | activity change, negative = inhibition, % (no concentration beside the values) | actives 0.8% (n = 37,000) | AID 1224904;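 active = -10% or lower and over 25 points stronger than a control reporter; inconclusive = -10% or lower with a smaller gap; inactive = above -10%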;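 note: 0% = median of neutral control wells and -100% = median of positive control wells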
DUX4 txn inh difference – also measured in DUX4 txn inh; calls as there; Gaussia minus Italica difference, %; measured here: selective DUX4 reporter inhibition;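 worked out from the two reporters; negative = selective loss of the DUX4 reporter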
DUX4 txn inh control – also measured in DUX4 txn inh; calls as there; activity change, negative = inhibition, %; measured here: Italica tet-on control reporter;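 0 = neutral control and -100 = positive control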
An asterisk follows results filed as active; u = inconclusive; x = no result given. A portion of the library; count on the stated rates, not on these rows.

SMILES | DUX4 txn inh | DUX4 txn inh difference | DUX4 txn inh control
COc1ccc(NC(=O)Nc2ccc3c(c2)C(=O)N([C@@H](C)CO)C[C@@H](C)[C@H](CN(C)Cc2ccncc2)OCCCC[C@H](C)O3)cc1 | -0.2 | -2.9 | 2.7
COc1ccc(S(=O)(=O)Nc2ccc3c(c2)OC[C@H](C)NC[C@H](C)[C@H](OC)CN(C)C3=O)cc1 | -9.1 | -13.8 | 4.7
O=C(C[C@@H]1CC[C@@H]2[C@H](COC[C@H](O)CN2C(=O)c2cccnc2)O1)NCc1ccc(Cl)cc1 | -2.6 | 0.1 | -2.6
C[C@@H]1CN([C@@H](C)CO)S(=O)(=O)c2ccc(C#Cc3ccncc3)cc2O[C@@H]1CN(C)S(=O)(=O)c1ccc(F)cc1 | 0.8 | -1.3 | 2.1
C[C@@H](NC(=O)C[C@H]1C[C@@H]2c3cc(NS(=O)(=O)c4ccc(F)cc4)ccc3O[C@@H]2[C@@H](CO)O1)c1ccccc1 | -4.9 | 1.3 | -6.2
O=C(NCc1ccccc1)[C@H]1[C@H](CO)[C@H]2Cn3c(cccc3=O)[C@@H]1N2C(=O)Cc1ccccn1 | -2.2 | -5.0 | 2.8
CCN1[C@@H]2c3ccc(-c4cccc(OC)c4)c(=O)n3C[C@H]1[C@H](CO)[C@H]2C(=O)N(C)C | -0.6 | -0.1 | -0.5
C[C@@H]1CN([C@@H](C)CO)C(=O)c2cccc(NC(=O)C3CCOCC3)c2O[C@H]1CN(C)C(=O)Nc1cccc2ccccc12 | -0.8 | -2.4 | 1.6
O=S(=O)(c1ccc(F)cc1)N1CCCCN2[C@H](CO)[C@@H](c3ccc(C#CC4CC4)cc3)[C@H]2C1 | u | x | x
C[C@@H]1CN([C@@H](C)CO)C(=O)c2cc(C#Cc3ccccc3F)cnc2O[C@@H]1CN(C)C(=O)C1CCC1 | -1.1 | 2.6 | -3.7
CC(C)NC(=O)N(C)C[C@@H]1Oc2ccc(NC(=O)c3ccncc3)cc2C(=O)N([C@H](C)CO)C[C@@H]1C | -0.1 | 0.9 | -1.1
CCC(=O)N1[C@@H](CO)[C@@H]2c3ccccc3N(S(=O)(=O)c3ccc(F)cc3)C[C@@H]21 | -0.9 | -0.2 | -0.7
N#C[C@H]1[C@H](c2ccccc2-c2ccccc2)[C@@H](CO)N1C(=O)Cc1ccncc1 | 15.2 | 14.9 | 0.3
COc1ccc(NC(=O)N(C)C[C@H]2Oc3ccc(NS(=O)(=O)c4cccs4)cc3CC(=O)N([C@H](C)CO)C[C@H]2C)cc1 | -1.6 | -1.0 | -0.6
C[C@@H]1CN([C@H](C)CO)C(=O)CCCn2nncc2CO[C@@H]1CN(C)C(=O)Nc1cccc(Oc2ccccn2)c1 | -0.1 | 5.2 | -5.3
Cc1cc(C(=O)Nc2ccc3c(c2)C(=O)N(C)[C@H]2CC[C@H](CC(=O)O)O[C@H]2CO3)no1 | -2.4 | 0.0 | -2.4
Cc1noc(C)c1C(=O)N(C)C[C@@H]1OCc2ccccc2-c2c(n(C)c3ccccc23)C(=O)N([C@H](C)CO)C[C@@H]1C | -8.3 | -10.8 | 2.5
COc1cccc(CN2CCCCN3[C@@H](CO)[C@H](c4ccc(C#Cc5cccnc5)cc4)[C@@H]3C2)c1 | u | x | x
O=C(C[C@@H]1C[C@@H]2c3cc(NS(=O)(=O)c4ccc(F)cc4)ccc3O[C@@H]2[C@@H](CO)O1)N1CCCCC1 | -2.3 | -3.0 | 0.7
C[C@@H]1CN([C@@H](C)CO)S(=O)(=O)c2ccc(-c3cccc(F)c3)cc2O[C@@H]1CN(C)S(=O)(=O)c1ccccc1 | 0.2 | -3.4 | 3.6
COc1ccc(-c2ccc([C@H]3[C@H](C#N)N(C(=O)NC4CCCCC4)[C@H]3CO)cc2)cc1 | 5.3 | -1.1 | 6.4
CCCNC(=O)N1C[C@H](O)COC[C@@H]2O[C@@H](CC(=O)NCc3ccncn3)CC[C@H]21 | 4.3 | 4.6 | -0.3
CCNC(=O)Nc1ccc2c(c1)C(=O)N(C)[C@@H]1CC[C@@H](CC(=O)NCCN3CCCC3)O[C@@H]1CO2 | 4.8 | 2.5 | 2.3
COc1ccc2c3c(n(C)c2c1)[C@@H](CO)N(C)CC31CN(C(=O)Nc2cccc(F)c2)C1 | 9.6 | 8.2 | 1.4
O=C(CN1CCOCC1)N1CCCCN2[C@H](CO)[C@H](c3ccc(-c4ccccc4)cc3)[C@H]2C1 | 10.5 | -2.9 | 13.4
COc1ccc(S(=O)(=O)N2CC[C@@H]3[C@@H](CO)Nc4ccc(C#Cc5ccccc5OC)cc4[C@@H]32)cc1 | -2.8 | 4.3 | -7.2
C/C=C/c1ccc([C@H]2[C@@H](CO)N(C(=O)C3CCC3)[C@@H]2CNC(=O)CN(C)C)cc1 | 3.7 | 4.0 | -0.4
CNC[C@H]1OCCCC[C@H](C)Oc2ccc(NC(=O)Nc3ccc(OC)cc3)cc2C(=O)N([C@@H](C)CO)C[C@@H]1C | -3.1 | -3.3 | 0.1
CC(C)[C@@H]1COCc2cn(nn2)CC[C@@H](C)C(=O)N1 | -4.8 | -4.3 | -0.5
COc1ccc(S(=O)(=O)Nc2ccc3c(c2)C(=O)N([C@H](C)CO)C[C@H](C)[C@H](CN(C)C(=O)Nc2cccc4ccccc24)OCCCC[C@@H](C)O3)cc1 | 3.1 | 7.7 | -4.6
C[C@@H]1CN([C@@H](C)CO)C(=O)c2cccc(NC(=O)C3CCOCC3)c2O[C@@H]1CN(C)C(=O)Nc1ccc2c(c1)OCO2 | 1.1 | -0.1 | 1.2
CCCNC(=O)C[C@@H]1CC[C@H]2[C@@H](COC[C@@H](O)CN2Cc2ccncc2)O1 | 6.1 | 2.1 | 3.9
CO[C@H]1CN(C)C(=O)c2cc(NS(=O)(=O)c3cccc(Cl)c3)ccc2OC[C@H](C)NC[C@@H]1C | 6.1 | 4.3 | 1.7
Cc1ccccc1-c1ccc([C@H]2[C@@H](CO)N3C(=O)CN(C(=O)c4ccncc4)C[C@@H]23)cc1 | 15.0 | 9.1 | 5.9
C/C=C/c1ccc([C@@H]2[C@@H](C#N)N(c3nc(CC)cs3)[C@H]2CO)cc1 | 1.2 | -0.1 | 1.2
COc1ccc(C#Cc2ccc([C@H]3[C@H](CO)N4CCCCN(Cc5ccncc5)C[C@@H]34)cc2)cc1 | u | x | x
COC(=O)C[C@H]1CC[C@@H]2[C@H](COc3ccc(NC(=O)C4CCOCC4)cc3C(=O)N2C)O1 | -4.7 | -2.8 | -1.9
C[C@H]1CN([C@@H](C)CO)C(=O)c2ccccc2-c2ccccc2CO[C@@H]1CN(C)Cc1ccncc1 | 7.7 | 3.4 | 4.3
CCC(=O)N1CC2(C1)[C@@H](c1ccc(-c3cccc(C)c3)cc1)[C@H](CO)N2S(C)(=O)=O | 6.8 | 7.9 | -1.1
CCCC(=O)Nc1ccc2c(c1)C(=O)N(C)[C@@H]1CC[C@H](CC(=O)NC3CCCC3)O[C@H]1CO2 | -2.5 | -5.8 | 3.2

An excerpt from above in order of their number in DUX4 txn inh difference, largest number first.
Compound | DUX4 txn inh | DUX4 txn inh difference | DUX4 txn inh control
Cc1ccccc1-c1ccc([C@H]2[C@@H](CO)N3C(=O)CN(C(=O)c4ccncc4)C[C@@H]23)cc1 | 15.0 | 9.1 | 5.9
COc1ccc2c3c(n(C)c2c1)[C@@H](CO)N(C)CC31CN(C(=O)Nc2cccc(F)c2)C1 | 9.6 | 8.2 | 1.4
CO[C@H]1CN(C)C(=O)c2cc(NS(=O)(=O)c3cccc(Cl)c3)ccc2OC[C@H](C)NC[C@@H]1C | 6.1 | 4.3 | 1.7
CCNC(=O)Nc1ccc2c(c1)C(=O)N(C)[C@@H]1CC[C@@H](CC(=O)NCCN3CCCC3)O[C@@H]1CO2 | 4.8 | 2.5 | 2.3
C/C=C/c1ccc([C@@H]2[C@@H](C#N)N(c3nc(CC)cs3)[C@H]2CO)cc1 | 1.2 | -0.1 | 1.2
O=C(CN1CCOCC1)N1CCCCN2[C@H](CO)[C@H](c3ccc(-c4ccccc4)cc3)[C@H]2C1 | 10.5 | -2.9 | 13.4

(more compounds)
SMILES | DUX4 txn inh | DUX4 txn inh difference | DUX4 txn inh control
COCC(=O)Nc1ccc2c(c1)C(=O)N(C)[C@@H]1CC[C@@H](CC(=O)NCC3CC3)O[C@H]1CO2 | 0.3 | -1.1 | 1.5
CN1C(=O)c2cc(NC(=O)c3cnccn3)ccc2OC[C@H]2O[C@@H](CC(=O)N[C@H]3CCN(Cc4ccccc4)C3)CC[C@@H]21 | -3.5 | -2.0 | -1.5
COC(=O)C[C@H]1CC[C@@H]2[C@@H](COc3ccc(NC(=O)Nc4cc(C)cc(C)c4)cc3C(=O)N2C)O1 | 2.8 | -2.1 | 4.8
CO[C@@H]1CN(C)C(=O)c2cc(NC(C)=O)ccc2OC[C@@H](C)N(C(=O)Cc2ccccn2)C[C@@H]1C | 2.2 | -0.2 | 2.4
O=C(C[C@H]1CC[C@@H]2[C@H](COC[C@@H](O)CN2C(=O)c2ccccc2)O1)Nc1ccccc1 | -0.5 | 4.0 | -4.5
CN1c2ccc(-c3cccc(C#N)c3)cc2[C@@H]2[C@@H](CCN2S(=O)(=O)c2ccccc2F)[C@@H]1CO | u | x | x
CN(C)CC(=O)Nc1ccc2c(c1)[C@H]1C[C@@H](CC(=O)NCCN3CCCCC3)O[C@H](CO)[C@H]1O2 | 4.1 | 3.2 | 1.0
C[C@H](C(=O)N(C)C[C@H]1OCc2ccccc2-c2ccccc2C(=O)N([C@H](C)CO)C[C@H]1C)c1ccccc1 | -0.9 | -0.5 | -0.3
CC(=O)N1[C@H](CO)[C@@H](c2ccccc2)C12CN(S(=O)(=O)c1ccccc1)C2 | 7.3 | 0.2 | 7.1
C[C@@H]1CN([C@H](C)CO)C(=O)c2cccc(NS(=O)(=O)c3cn(C)cn3)c2O[C@@H]1CN(C)C(=O)Nc1ccc(F)cc1 | -2.5 | -3.9 | 1.4
O=C(c1cccc(F)c1)N1C[C@H]2[C@@H](c3ccccc31)[C@@H](CO)N2C(=O)c1ccc(F)cc1 | -1.0 | 0.0 | -1.0
C[C@H]1CN([C@@H](C)CO)C(=O)c2cccc(N(C)C)c2O[C@@H]1CN(C)S(=O)(=O)c1cn(C)cn1 | 1.1 | 0.6 | 0.5
COC(=O)C[C@H]1CC[C@@H]2[C@H](COC[C@@H](O)CN2CCC(F)(F)F)O1 | 2.7 | 3.3 | -0.6
CN(C)CCCNC(=O)[C@@H]1[C@@H](CO)[C@@H]2Cn3c(ccc(-c4ccc(F)cc4)c3=O)[C@@H]2N1C | -2.3 | 2.8 | -5.1
CCN(C[C@H]1N[C@@H](CO)[C@H]1c1ccc(C2=CCCC2)cc1)C(=O)c1ccccc1 | -1.8 | -1.0 | -0.8
COc1ccc(S(=O)(=O)N[C@@H]2CC[C@@H](CCNC(=O)Cc3ccccn3)O[C@H]2CO)cc1 | -8.8 | -0.8 | -7.9
COc1ccc2c3c(n(C)c2c1)[C@@H](CO)N(C)CC31CN(S(=O)(=O)c2cn(C)cn2)C1 | 12.9 | 1.7 | 11.1
C[C@@H]1CN([C@@H](C)CO)C(=O)c2c(c3ccccc3n2C)-c2ccccc2CO[C@@H]1CN(C)C(=O)[C@@H]1CCCN1C | 9.4 | 13.7 | -4.3
CN1c2ccc(-c3ccc(C#N)cc3)cc2[C@@H]2[C@@H](CCN2C(=O)CC2CC2)[C@H]1CO | u | x | x
COc1ccc(-c2ccc([C@H]3[C@@H](CO)N4CCCCN(C(=O)c5ccc(F)cc5)C[C@@H]34)cc2)cc1 | u | x | x
Cc1cccc(S(=O)(=O)N(C)C[C@H]2OCc3ccccc3-c3ccccc3C(=O)N([C@@H](C)CO)C[C@@H]2C)c1 | -8.4 | -11.9 | 3.5
Cc1ccccc1-c1ccccc1[C@@H]1[C@H](C#N)N(C(=O)c2cccc(F)c2)[C@H]1CO | -6.6 | 0.2 | -6.9
COCCNC(=O)C[C@@H]1C[C@H]2c3cc(NC(=O)Cc4ccncc4)ccc3O[C@H]2[C@@H](CO)O1 | 2.1 | -2.4 | 4.5
CCCC#Cc1ccc([C@@H]2[C@H]3CN(Cc4cccnc4)CCCCN3[C@H]2CO)cc1 | -9.6 | -7.7 | -1.9
C[C@@H]1CN([C@H](C)CO)C(=O)CCCn2nncc2CO[C@H]1CN(C)Cc1cccc2c1OCCCO2 | 6.8 | 4.3 | 2.5
CO[C@H]1CN(C)C(=O)c2ccc(NC(C)=O)cc2OC[C@@H](C)N(C(=O)Cc2cccnc2)C[C@H]1C | 1.9 | 3.4 | -1.5
O=C(Nc1ccccc1)N1C[C@@H]2[C@H](c3ccccc31)[C@@H](CO)N2C(=O)c1cccnc1 | -3.1 | -1.8 | -1.4
Cc1ccc(S(=O)(=O)Nc2ccc3c(c2)C(=O)N([C@@H](C)CO)C[C@@H](C)[C@H](CN(C)Cc2ccc4c(c2)OCO4)OCCCC[C@H](C)O3)cc1 | -1.2 | -1.8 | 0.6
CCS(=O)(=O)N1CCCCN2[C@H](C1)[C@@H](c1ccc(-c3ccc(C#N)cc3)cc1)[C@@H]2CO | -2.8 | -2.0 | -0.7
O=C(C[C@@H]1CC[C@H]2[C@@H](COC[C@@H](O)CN2C(=O)Nc2ccc(Cl)c(Cl)c2)O1)NCc1ccc(F)cc1 | -5.8 | -1.4 | -4.4
COCC(=O)N1[C@H](CO)[C@@H]2c3ccccc3N(C(=O)C3CC3)C[C@@H]21 | -0.7 | 3.1 | -3.8
COc1cc(CN2CC3(CN(C(=O)CN4CCOCC4)C3)c3c(n(C)c4cc(OC)ccc34)[C@H]2CO)cc(OC)c1 | 2.2 | 2.1 | 0.1
CCC(=O)N1CC(=O)N2[C@H](CO)[C@@H](c3ccc(-c4ccccc4F)cc3)[C@@H]2C1 | u | x | x
CN(C)c1ccc2c(c1)[C@@H]1C[C@H](CC(=O)NCCN3CCCCC3)O[C@H](CO)[C@@H]1O2 | 9.1 | 6.6 | 2.4

Screens deposited in PubChem BioAssay by Broad Institute.
